NS1 function inh = qHTS Assay for Inhibitors of Influenza NS1 Protein Function. S. cerevisiae slowed by influenza A NS1, growth recovery by OD600. Potency, µM (highest dose often 46.1 µM), for inactives: at the highest dose activity, positive = more growth. 0.4% of 270,000 active; also: actives are rising curves; nearly all actives have a fitted effect of over 50% in size
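Growth recovery, yeast-based: influenza A NS1 expressed in S. cerevisiae causes slow growth, and suppressors are detected by OD600. The parent strain without NS1 is used as positive control.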
Marburg entry inh = qHTS for inhibitors of binding or entry into cells for Marburg Virus | Marburg virus pseudotyped entry inhibition, cell reporter; control for the full effect not named in the record; about a third of the inactives were read at about 46 µM | Potency, µM (doses to about 37.8 µM), inactives show at the top dose activity change, negative = inhibition, usual class: inhibitors | 1.8% of 300,000 active | AID 540276, 2011; active = well fitted inhibition curve with a large enough effect; inconclusive = small, poorly fitted or top-dose-only effect, or effect the other way; inactive = flat fitted curve, though single readings scatter; tested in HEK293 cells; about a fifth of its hits are not listed in these tables; also: % is scaled to controls: 0 for no effect and ±100 for the full control effect; luciferase read-out
2A StopGo = High Throughput Screening for Foot and Mouth Disease Virus Antivirals; Potency, µM (titrated, usually from 57.9 µM), for inactives: at the top dose signal change, negative = less light; 1.2% of 410,000 active; human cells with a luciferase reporter of 2A StopGo recoding; control for the full effect not named in the record; active = well fitted falling curve with a large enough effect; inconclusive = small, poorly fitted or top-dose-only effect; inactive = no such curve, though single readings can be large or run the other way; tested in HEK293T cells; also: % is scaled to controls: 0 for no effect and ±100 for the full control effect; nearly all actives have a fitted effect of over 45% in size; luciferase light after 4 h
SARS PLpro yeast = qHTS of Yeast-based Assay for SARS-CoV PLP; Potency, µM (top dose mostly 32.9 µM), for inactives: top-dose activity, positive = growth rescue; AID 485353, 2010; S. cerevisiae expressing SARS-CoV PLpro, growth rescue; control for the full effect not named in the record; 0.19% of 330,000 active; also: 0% is about no effect; nearly all actives have a fitted effect of over 55% in size; growth read by luminescence after 48 h
Cruzain inh noDet = qHTS Assay for Promiscuous and Specific Inhibitors of Cruzain (without detergent). Cruzipain (Trypanosoma cruzi), P25779. purified cruzain, Z-FR-AMC fluorescence, no detergent. Potency, µM, inactives show max response, negative = inhibition, hits mostly inhibitors. 2.3% of 200,000 active. AID 1476, 2009; active = well fitted curve in the direction sought with a large enough effect; inconclusive = small, poorly fitted or top-dose-only effect, or another doubt; inactive = no such curve, though single readings can be large; an effect the other way counts as inactive or inconclusive;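 also: plate controls were enzyme without inhibitor for no effect and buffer without enzyme for full effect; nearly all actives have a fitted effect of over 40% in size; top concentration of the series not given in the record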
Target sequence (P25779 123-467 limits assumed): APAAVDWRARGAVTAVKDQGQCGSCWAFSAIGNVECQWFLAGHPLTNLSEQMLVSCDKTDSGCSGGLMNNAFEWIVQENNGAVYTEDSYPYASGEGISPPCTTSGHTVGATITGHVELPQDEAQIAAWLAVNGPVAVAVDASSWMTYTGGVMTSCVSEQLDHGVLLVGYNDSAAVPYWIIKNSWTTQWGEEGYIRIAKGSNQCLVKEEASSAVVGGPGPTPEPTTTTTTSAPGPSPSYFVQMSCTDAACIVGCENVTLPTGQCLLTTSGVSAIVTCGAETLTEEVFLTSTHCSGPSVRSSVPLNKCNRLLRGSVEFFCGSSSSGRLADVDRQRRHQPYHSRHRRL
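Purified cruzain at 1.5 nM, pre-incubated 15 min with compound at room temperature in 100 mM sodium acetate pH 5.5, 5 mM DTT, 0.00005% Triton X-100. Reaction started with 2 uM Z-FR-AMC; AMC fluorescence increase over 60 s gives rate.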
Cruzain Triton = qHTS Assay for Promiscuous and Specific Inhibitors of Cruzain (with detergent) | 0.43% of 200,000 active | purified cruzain, Z-FR-AMC fluorescence, 0.01% Triton | Cruzipain (Trypanosoma cruzi), P25779 | AID 1478, 2009 | Potency, µM, inactives show max response, negative = inhibition, usual class: inhibitors; active = well fitted curve in the direction sought with a large enough effect; inconclusive = small, poorly fitted or top-dose-only effect, or another doubt; inactive = no such curve, though single readings can be large; an effect the other way counts as inactive or inconclusive;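 also: plate controls were neutral wells for no effect and buffer without enzyme for full effect; nearly all actives have a fitted effect of over 40% in size; top concentration of the series not given in the record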
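Detergent-containing arm of a paired screen for aggregation-based inhibition: 0.01% Triton X-100 present. Cruzain at 1.5 nM cleaved 2 uM Z-FR-AMC at pH 5.5 with 5 mM DTT; AMC fluorescence gain over 60 s measured activity.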
Lassa entry inh = qHTS for Inhibitors of binding or entry into cells for Lassa Virus | Lassa virus pseudotype entry inhibition, cell reporter; control for the full effect not named in the record | Potency, µM (doses to about 37.9 µM), inactives show at the top dose activity change, negative = inhibition, most hits filed as inhibitors | 1.2% of 300,000 active; active means well fitted inhibition curve with a large enough effect; inconclusive means small, poorly fitted or top-dose-only effect, or effect the other way; inactive means flat fitted curve, though single readings scatter; tested in HEK293 cells; also: % is scaled to controls: 0 for no effect and ±100 for the full control effect; nearly all actives have a fitted effect of over 50% in size; luciferase read-out
RE007 growth inh = qHTS Assay for Inhibitors of the HIV-1 protein Vpr; 0.21% of 360,000 active; S. pombe RE007 Vpr strain, BacTiter-Glo ATP luminescence, 24 h; control for the full effect not named in the record; Potency, µM (highest dose often 92.2 µM), without a hit: at the top dose activity change, negative = less growth; active = well fitted falling curve with a large enough effect; inconclusive = small, poorly fitted or top-dose-only effect; inactive = no such curve, though single readings can be large or run the other way;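 also: % is scaled to controls: 0 for no effect and ±100 for the full control effect; nearly all actives have a fitted effect of over 50% in size; the assay follows cell death caused by Vpr and the record does not say whether a fall means rescue or toxicity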
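Fission yeast RE007 carrying one integrated HIV-1 vpr copy, seeded at OD 0.01 in PMG+AL medium with 23 nL pinned compound. Grown 24 h at 30 degrees; viability read by BacTiter-Glo luminescence after 5 min.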
An asterisk follows results filed as active; ? = inconclusive; . = no result given; & = joins results of further samples; [ ] = another dose, or the depositor's remark. Unless noted, calls follow the shape of the dose curve; as a rule, active means well fitted rising curve with a large enough effect; inconclusive means small, poorly fitted or top-dose-only effect; inactive means no such curve, though single readings can be large or run the other way. Potency is read from the fitted curve at half-maximal effect.

SMILES | NS1 function inh | Marburg entry inh | 2A StopGo | SARS PLpro yeast | Cruzain inh noDet | Cruzain Triton | Lassa entry inh | RE007 growth inh
CC(C)(C)NC(=O)c1ccc2c(c1)N(CC(=O)N1CCCC1)C(=O)C(C)(C)O2 | -5% | . | -1% | 11% | . | . | . | 3%
CCC(C)NS(=O)(=O)c1ccc(OCC(=O)NCc2ccccn2)cc1 (configuration not stated) | 2% | 1%[46.1 µM] | 10% | 0% | . | . | 3% | 3%
COc1ccc(NC(=O)C2CCCN(c3nc(C)cc(C)n3)C2)cc1 (configuration not stated) | 2% | . | -15% | -1% | . | . | . | 1%
CN(C1CCS(=O)(=O)C1)S(=O)(=O)c1ccccc1[N+](=O)[O-] (configuration not stated) | 27% | ? | -5% | 7% | 0% | -1.7% | 1%[46.1 µM] | 14%
CCCCCCn1c(N2CCN(c3ccccc3)CC2)nc2c1c(=O)[nH]c(=O)n2C | -53% | ? | ? | -8% | ? | -11% | ? | 9%
Cc1cccc(N2CCN(C(=O)C3CCN(c4ncnc5c4nc4n5CCCCC4)CC3)CC2)c1C | 12% | . | 20µM* | -3% | . | . | ? | 18%
Cc1ccc(-c2c(C(=O)N3CCN(c4ccc(F)cc4)CC3)oc(=O)c3ccccc23)cc1 | . | -3%[46.1 µM] | -28% | . | -4% | 2.4% | 2%[46.1 µM] | .
COc1ccc(CNS(=O)(=O)c2cc(-c3cc(C)no3)ccc2C(C)C)cc1 | -38% | . | 49%[activator] | -17% | . | . | . | 3%
COCCNC(=O)c1ccc(Cn2c(SCC(=O)NC(C)C)nc3ccccc3c2=O)cc1 | . | . | -5% | . | 9% | 0.0% | 14%[46.1 µM] | .
O=C(COc1ccc2ccccc2c1)NNC(=O)Cc1ccccc1 | 8% | ? | 31%[activator] | 15% | -2% | -4.1% | 10% | -7%
CCOc1ccc(NC(=O)c2c(NC(=O)Cc3ccccc3)sc3c2CCCC3)cc1 | . | 1%[46.1 µM] | -15% | . | 12% | -2.7% | -1%[46.1 µM] | .
Cc1ncc(NS(=O)(=O)c2ccc(N)cc2)nc1C | . | 1% | 19% | . | . | . | 8% | 3%
Cc1ccc(NC(=O)/C(CN(C)C)=N\O)cc1 | -6% | 13%&13% | 62%[activator] | 4% | -8% | 1.8% | 22% | -10%
Cc1cccc(NC2(C(F)(F)F)N=C3SCCN3C2=O)n1 (configuration not stated) | -1% | -7% | . | 5% | 5% | 2.3% | 7% | 5%
CCCN(CC(=O)Nc1ccccc1C)C(=O)c1cc(=O)[nH]c2ccccc12 | . | 18%[46.1 µM] | 4% | -1% | . | . | 20% | 12%
COc1cc2c(cc1OC)CN(C(=O)CCN1C(=O)C3CCCCC3C1=O)CC2 (configuration not stated) | 0% | 3%[14.2 µM] | -12% | 3% | . | . | 1% | 11%
COc1ccc(C[C@H]2CN3C(=NC[C@@H]3Cc3ccccc3)N2CCNC(=O)c2ccc(C)c(Br)c2)cc1 | 5% | . | ? | 1% | . | . | . | 4%
O=C1C(C23CC4CC(CC(C4)C2)C3)C(=O)N(c2ccccc2)N1c1ccccc1 | 7% | 7% | . | -7% | -21% | -1.3% | -14% | 8%
O=C(NCc1ccco1)c1ccc(COc2ccccc2[N+](=O)[O-])o1 | -10% | . | -6% | ? | . | . | . | -13%
CCS(=O)(=O)N1CCC(C(=O)Nc2cccc(C(C)=O)c2)CC1 | 6% | -11% | -8% | 2% | -5% | 3.2% | -2% | 41%
COC(=O)C1C(C(C)C)N(c2ccccc2)OC1(C)O (configuration not stated) | ? | 8% | . | -15% | -3% | 1.0% | ? | 9%
C/[N+]([O-])=C\C1C(=O)CCCC1=O | 0% | 3%[46.1 µM] | -2% | 0% | . | . | ? | -9%
CCCCCn1c(=O)c(C(=O)Nc2cnccn2)c(O)c2ccccc21 | -4% | ? | -22% | 0% | . | . | ? | -13%
CC1=C(C)CC(C(=O)NNC(=O)c2ccccc2O)C(C(=O)O)C1 (configuration not stated) | -27% | ? | 44%[activator] | ? | 0% | 1.7% | -14% | -7%
Cn1c(NN)nc2c1c(=O)n(Cc1ccccc1)c(=O)n2C | 3% | . | -5% | -1% | . | . | . | 0%
Cc1ccccc1CNc1ncnc2cc(Cl)ccc12 | -2% | 4% | ? | 0% | . | . | -6% | 13%
CC(NC(=O)CCCc1c[nH]c2ccccc12)c1ccc(F)cc1 (configuration not stated) | 27% | 0%[46.1 µM] | ? | 0% | . | . | -18% | -4%
Fc1ccc(N/N=C/c2ccc(N3CCOCC3)cc2)c(F)c1 | 0% | ? | 29% | 2% | . | . | ? | 78%
COc1ccc(CSc2nnc(C)n2N)cc1 | 0% | -1%[46.1 µM] | -5% | 1% | 14% | 1.4% | 12% | 3%
O=C(Cc1ccccc1)OCC(=O)c1ccc(F)cc1 | . | 15% | 65%[activator] | 0% | . | . | ? | 2%
CCOc1ccc(/C=N/NC(=O)CSc2ccccn2)cc1O | -2% | . | 1% | 0% | . | . | . | -9%
Cc1cccn2c(=O)c3cc(C(=O)O)n(C)c3nc12 | -9% | 3% | -10% | 5% | -8% | -7.3% | 2% | -5%
CCn1c(C)c(C)c2cc(C(=O)NCc3ccc(OC)cc3OC)ccc21 | . | . | -2% | . | -9% | -6.9% | 5%[46.1 µM] | .
COc1ccc(CNC(=O)N[C@H](C(=O)O)C(C)C)cc1OC | 4% | . | -9% | 6% | . | . | . | 5%
O=C(COC(=O)c1ccc([N+](=O)[O-])s1)Nc1ncc(C(F)(F)F)cc1Cl | -20% | -6% | -17% | -106% | -4% | -12% | 15% | ?
Cc1ccc(C)n1-c1ccc(C(=O)Nc2ccccc2)cc1 | 16% | -20% | 4% | -2% | ? | -7.5% | -19% | 4%
O=C(NCC1COc2ccccc2O1)c1ccc(-n2cncn2)c([N+](=O)[O-])c1 (configuration not stated) | . | ? | -8% | 1% | . | . | -1% | -12%
CCOc1ccccc1C(=O)Nc1cc2c(cc1C)n(C)c(=O)c(=O)n2C | . | . | -3% | . | -3% | -1.8% | -2%[46.1 µM] | .
CCN(c1ccccc1)S(=O)(=O)c1ccc(Oc2ccccc2)c(N)c1 | . | ? | ? | . | . | . | ? | 3%
Cc1ccc(N2C(=O)c3ccccc3C2=O)cc1C | 3% | -2% | 14% | ? | 10% | -1.0% | 12% | -7%
CCN(CC)S(=O)(=O)c1ccc(C2CNC(=O)C2)cc1 (configuration not stated) | 5% | . | -16% | -2% | 7% | 1.7% | . | -1%
CN(c1ccccc1)S(=O)(=O)c1cccc(C(=O)OCC(=O)NCc2ccco2)c1 | . | 3%[46.1 µM] | -21% | 1% | . | . | 0% | 14%
CCOC(=O)c1oc2ccc(CNCCO)c(Cl)c2c1C | -4% | ? | 10% | 0% | 11% | -2.4% | -2% | -8%
Cc1cc(C)n(C(=O)c2c([N+](=O)[O-])cnn2C)n1 | 2% | 21% | -13% | -6% | -4% | 0.0% | ? | 11%
COc1ccc(-c2nc3ccccc3o2)cc1NC(=O)COc1ccc(C)c(C)c1 | . | . | -8% | . | 7% | 0.8% | -20%[46.1 µM] | .
CCn1c(SCC(=O)N2CCc3ccccc3C2)nc2c1c(=O)n(C)c(=O)n2C | 2% | 17% | -7% | 0% | -7% | 2.0% | -2% | -11%
CC1(C)Cc2c(cnn2-c2ccc(F)cc2)C(NC(=O)CN2CCCCC2=O)C1 (configuration not stated) | 10% | . | -3% | 2% | . | . | . | -4%
CCOc1ccc(CCNC(=O)CN2C(=O)COc3ccc(S(=O)(=O)N4CCOCC4)cc32)cc1 | -15% | 26%[46.1 µM] | -9% | 1% | . | . | -4%[46.1 µM] | -4%
C[C@H](NC(=O)c1ccc(Cl)cc1)C(=O)NCCc1ccc(S(N)(=O)=O)cc1 | . | -19%[46.1 µM] | -10% | 1% | . | . | ? | -8%
CCOc1ccc(NC(=S)NC(C)c2cccs2)cc1 (configuration not stated) | -2% | -29% | 8% | ? | -3% | -1.7% | -3% | -6%
COc1ccc(-n2nc(C(=O)NCC(=O)NCc3ccccc3OC)c3ccccc3c2=O)c(OC)c1 | . | 0%[46.1 µM] | -8% | 4% | . | . | . | -10%
Cc1ccc(NC(=O)Cn2cc(S(=O)(=O)c3ccc(C)cc3)c(=O)c3cc4c(cc32)OCO4)cc1 | . | 18%[46.1 µM] | -2% | . | -27% | -3.5% | -7%[46.1 µM] | .
Cc1cc(NC(=O)CSc2nnnn2-c2ccccc2C)no1 | 0% | -18% | -14% | -1% | . | . | 1% | 1%
COC(=O)c1ccc(/C=C/c2nc3ccccc3c(=O)[nH]2)cc1 | 2% | ? | 18% | 0% | . | . | ? | 8%
Cc1ccc(C)c(C(=O)NC(C)c2ccc(-n3ccnc3)cc2)c1 (configuration not stated) | 18% | -17% | -7% | 16% | . | . | -1% | 1%
Cc1ccc(C)c(S(=O)(=O)/N=C(/Nc2ccccc2)c2ccccc2)c1 | . | ? | 17% | -15% | . | . | 7%[46.1 µM] | -11%
Cc1ccc(C2N(c3ccccc3)C(=S)N3CCCN23)cc1 (configuration not stated) | -2% | -5% | 4% | -6% | -12% | -6.9% | 19% | 6%
COc1cc(-c2cc(C(=O)NCc3ccc(S(N)(=O)=O)cc3)c3ccccc3n2)cc(OC)c1OC | -11% | -29%[46.1 µM] | -17% | -1% | . | . | . | 20%
Cc1oc(C2CC2)cc1C(=O)O | -4% | ? | -1% | 5% | 6% | 4.3% | 12% | -7%
CN1/C(=C\C(=O)c2ccccc2Cl)c2ccccc2CC1(C)C | -17% | ? | -14% | 16% | 8% | -4.2% | 0% | 12%

Compound activity: PubChem BioAssay, National Center for Advancing Translational Sciences (NCATS)
